rRNA inh HTS: reduced GFP signal of wild-type E. coli, primary screen, bacterial rRNA inhibitor project, GFP/RFP fluorescence, OD600, single point; E. coli WT GFP vs humanized-ribosome RFP mutants, 24 h; stronger effect = lower value; DMSO median 0, no signal -100; GFP signal change (wild-type ribosome), % (concentration not given with the values); 350,000 tested, 1.6% active;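 active = significant combined selectivity score with lowered wild-type GFP, culture density cut under 30%, mutant RFP and density less affected; inactive = any of these conditions unmet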; note: one replicate is shown; some compounds called inactive have numbers as strong as hits
HNF4A DNA FP: change in binding of human HNF4A to DNA, primary screen, biochemical, fluorescence polarization, FITC-DNA | activity change, % at 10 µM | 360,000 tested, 0.3% active | AID 1224865, 2016 | Hepatocyte nuclear factor 4-alpha (Homo sapiens), P41235 | 1 h; in the data active = activity change above about 30%, passing the limit was not always enough;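 note: controls were the assay level and a saturating level of protein; the project sought stronger binding though the title names inhibitors; some compounds called inactive have numbers as strong as hits; positive values seem to mean higher polarization but the record does not say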
Target sequence (P41235 whole entry, looked up): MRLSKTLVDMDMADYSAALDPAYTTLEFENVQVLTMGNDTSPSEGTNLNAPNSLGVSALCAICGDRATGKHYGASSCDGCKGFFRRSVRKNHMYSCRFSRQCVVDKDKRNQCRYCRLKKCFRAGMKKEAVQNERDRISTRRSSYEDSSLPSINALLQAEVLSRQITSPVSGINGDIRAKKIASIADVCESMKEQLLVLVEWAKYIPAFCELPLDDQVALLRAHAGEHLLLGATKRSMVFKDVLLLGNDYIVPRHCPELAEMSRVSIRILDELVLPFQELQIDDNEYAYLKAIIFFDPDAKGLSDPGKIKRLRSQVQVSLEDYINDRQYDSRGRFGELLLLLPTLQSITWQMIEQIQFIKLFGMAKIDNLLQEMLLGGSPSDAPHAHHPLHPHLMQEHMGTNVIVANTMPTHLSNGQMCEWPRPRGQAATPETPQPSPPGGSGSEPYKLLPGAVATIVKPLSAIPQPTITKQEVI
ALR inh: inhibitors of human ALR sulfhydryl oxidase, primary screen, biochemical, H2O2 detection, HRP-luminol luminescence, single point. purified ALR, DTT oxidation. FAD-linked sulfhydryl oxidase ALR (Homo sapiens), P55789. inhibition, % (concentration not given with the values). 290,000 tested, 3.8% active;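 active = mean and each replicate at 75% or more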;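 note: stock transfer was 7.5 nL into about 7.5 µL; 0% = neutral wells and 100% = wells with inactivated enzyme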
Target sequence (P55789 whole entry, looked up): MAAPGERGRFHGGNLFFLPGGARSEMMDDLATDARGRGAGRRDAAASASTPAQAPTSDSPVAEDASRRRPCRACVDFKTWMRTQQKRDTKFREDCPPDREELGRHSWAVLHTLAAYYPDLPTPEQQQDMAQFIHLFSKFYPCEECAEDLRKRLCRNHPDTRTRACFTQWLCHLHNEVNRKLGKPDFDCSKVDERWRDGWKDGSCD
B2AR ag: beta2AR agonists driving receptor internalization, primary screen, cell-based, FAP fluorogen, flow cytometry. AID 504454, 2011. Beta-2 adrenergic receptor (Homo sapiens), P07550. response, % (test concentration not listed). Am2.2-beta2AR cells; reference of the scale not given here. 340,000 tested, 0.43% active;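 active = response above a set limit, near 3 SD of response in nonfluorescent compounds, cut at about 42% in these data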;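 note: stock transfer was 100 nL into about 11 µL; a reference agonist was the positive control; negative values mostly stem from fluorescent compounds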
E coli growth: E. coli growth inhibition, primary screen, OD600 | Escherichia coli growth, 23 h; stronger effect = lower value | OD600 absorbance (no concentration beside the values) | 330,000 tested, 0.21% active | AID 1053175, 2014;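 active = OD600 absorbance below the run mean of sample wells minus 3.6 SD, in any replicate, cut at about 0.56 in these data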;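 note: stock transfer was 300 nL into about 60 µL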
FGF22 binding: binders of human FGF22 protein, primary screen, FGF22 synaptogenesis inhibitor project, biophysical, thermal shift, single point; 340,000 tested, 1.5% active; AID 651658, 2012; Fibroblast growth factor 22 (Homo sapiens), Q9HCT0; calls only at 9.99 µM; recombinant FGF22 thermal shift, SYPRO orange fluorescence; percent of sucrose octasulfate shift, DMSO zero;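 active = melting point raised past a set limit in the mean and every replicate; three in four hits are not shown here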
UCH37 inh: inhibitors of human UCH37 deubiquitinase, primary screen, biochemical, Ub-AMC cleavage, fluorescence; inhibition, % (no concentration beside the values); AID 588478, 2011; Ubiquitin carboxyl-terminal hydrolase isozyme L5 (Homo sapiens), Q9Y5K5; 330,000 tested, 0.33% active; purified proteasome/UCH37;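 active = mean of two replicates above 20%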;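 note: 0% = compound-free wells with enzyme and 100% = wells lacking proteasome; stock transfer was 100 nL into about 20 µL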
Target sequence (Q9Y5K5 whole entry, looked up): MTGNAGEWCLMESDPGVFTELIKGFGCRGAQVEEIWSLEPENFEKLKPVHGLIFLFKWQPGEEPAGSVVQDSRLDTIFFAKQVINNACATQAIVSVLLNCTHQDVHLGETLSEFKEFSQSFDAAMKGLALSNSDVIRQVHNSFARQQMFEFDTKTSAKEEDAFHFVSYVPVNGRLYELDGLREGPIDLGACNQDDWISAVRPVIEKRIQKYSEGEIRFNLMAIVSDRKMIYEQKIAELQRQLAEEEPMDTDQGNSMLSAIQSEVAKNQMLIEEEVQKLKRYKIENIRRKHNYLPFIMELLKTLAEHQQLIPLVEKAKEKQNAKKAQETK
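Assay system: Proteasome-bound UCH37. Buffer or medium: pH 7.4 Tris-HCl (50 mM) with ovalbumin, ATP-MgCl2, DTT. Incubation: 30 min preincubation with enzyme, 25 min cleavage at room temperature. Measured by: fluorescence, ex 355 nm, em 460 nm. Read-out basis: percent inhibition. Control set: wells without proteasome as full block, compound-free enzyme plus substrate as uninhibited.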
rRNA inh HTS OD600: further read-out of rRNA inh HTS, marked with its call; OD600 change, %; measured here: OD600 growth;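 optical density of the mix in the first replicate; 0 = DMSO median and -100 = no signal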
rRNA inh HTS RFP: second read-out of rRNA inh HTS, no call of its own (marks repeat the call); RFP signal change, %; measured here: RFP humanized mutant strains;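 first replicate; 0 = DMSO median and -100 = no signal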
Active calls of the source: *; i = inactive; / = not tested or not shown; & = joins results of further samples.

structure	FGF22 binding	B2AR ag	HNF4A DNA FP	rRNA inh HTS RFP	UCH37 inh	ALR inh	rRNA inh HTS OD600	rRNA inh HTS	E coli growth
COc1ccc(C(=O)CSc2nnc(-c3cc(C)on3)o2)cc1	i	-2	2.9	2.7	0.5	37	7	2	0.71
CCCN(CCC)CCNC(=O)C1c2ccccc2C(=O)N2CCc3ccccc3C12 (stereo not drawn)	i	7	0.4	0.4	1.0	/	-21	0	0.65
CC(=O)c1sc(-c2ccc(F)cc2)cc1NS(=O)(=O)c1ccc(C)cc1	i	3	-4.5	0.3	-10	-9	8	12	0.7
S=C(Nc1cccnc1)N1CCCCC1	/	-3	-1.0	1.2	0.9	-2	14	5	0.7
O=C(O)CCn1c(=O)sc2ccccc21	/	9	3.3	/	2.0	-6	/	/	0.61
COCc1nnc(NC(=O)CCC2CCCCC2)s1	/	-26	3.1	/	0.2	/	/	/	0.74
Cc1nnc(N/N=C/c2ccc([N+](=O)[O-])cc2)n1N	i	-1	-1.2	-1.7	/	-21	6	1	/
N#Cc1ccc(CSc2ccccn2)c(Cl)c1	i	-8	-3.2	/	-2.0	/	/	/	0.67
C[C@H]1CN([C@@H](C)CO)S(=O)(=O)c2ccc(Br)cc2O[C@H]1CN(C)Cc1ccc(F)cc1	i	/	-1.1	-5.8&-6.8	/	/	-34&-30	-14&-8	/
Cc1c(C)c2ccc(O)c(CN3CCN(C)CC3)c2oc1=O	i	-10	4.4	2.7	i	3	10	8	0.67
COc1cccc(C(=O)Nc2cc([N+](=O)[O-])ccc2N2CCN(C)CC2)c1	i	-1	0.3	0.9	6.6	-8	-5	-8	0.69
Fc1ccccc1Cn1nnc(-c2ccc3c(c2)OCO3)n1	/	-8	-2.5	/	1.1	-8	/	/	0.65
CCOC(=O)C1=C(C)N=c2s/c(=C\c3cccc(OCC(=O)O)c3)c(=O)n2C1c1ccccc1OC (stereo not drawn)	i	-1	-0.9	0.2	/	2	13	8	/
O=C1OC(/C=C/c2ccccc2)=NC/1=C/c1ccco1	i	10	-4.4	0.7	1.2	10	4	4	0.66
COc1ccc2c(c1OC)CN1CCc3cc4c(cc3[C@@H]1[C@@H]2O)OCO4	/	-8	-21	/	1.2	4	/	/	/
COC(=O)CCn1nnc(-c2ccc(C(C)C)cc2)n1	/	-4	1.7	/	6.9	/	/	/	0.66
Cc1ccccc1CN1CCc2c(OCC(=O)N3CCCc4ccccc43)cccc2C1=O	/	10	4.7	/	1.8	/	/	/	0.77
CCC(c1nnnn1Cc1ccccc1)N1CCN(C(=O)c2ccco2)CC1 (stereo not drawn)	/	-14	-1.2	/	4.4	1	/	/	0.79
Cc1ccccc1NC(=S)N/N=C1\CC(C)(C)Oc2ccc(O)cc21	i	13	3.6	-5.1	/	19	-65	-38	/
O=S(=O)(NCc1ccco1)c1ccc(Cl)cc1Cl	i	2	-1.0	-0.2	0.2	5	-12	1	0.7
COc1ccc(C(=O)COC(=O)Cc2c[nH]c3ccccc23)c(OC)c1	i	-2	5.5	-4.5	2.1	-7	-38	-36	0.64
COC(=O)c1c(-c2ccc(OC)cc2)sc2ccc(-c3ccc4c(c3)OCO4)cc12	i	2	-0.6	15	-9.0	3	15	9	0.65
COC(=O)C1=C(C(=O)OC)[C@@H]2N(C)c3ccccc3[C@@]23C[C@@H](CO)N(C(=O)C2CCC2)C3=N1	i	3	-0.1	-5.4	4.7	/	-5	-7	/
Cc1ccc(C)c(S(=O)(=O)NC(C)C(=O)Nc2ccc(-c3nc4ccccc4s3)cc2)c1 (stereo not drawn)	/	-7	3.6	/	-14	-2	/	/	0.79
Cc1ccc(C)c(NC(=O)COc2coc(CN3CCc4ccccc4C3)cc2=O)c1	i	7	1.6	3.7	1.0	-2	-3	-4	0.62
Cc1ccccc1NC(=O)CN1C(=O)CSc2ccc(S(=O)(=O)N3CCCCC3)cc21	i	-1	1.8	2.7	2.0	/	8	7	0.68
COc1ccc(C)cc1N(CC(=O)N1CCCCCC1)S(=O)(=O)c1ccc(C)cc1	i	-4	1.9	0.2	5.0	1	-37	-29	0.7
Cc1cc(C(=O)NNC(=O)c2ccc(Cl)cc2)no1	i	3	-0.8	3.2	3.8	3	7	18	0.72
CCc1cc(CNC(=O)CC2C(=O)NCCN2Cc2c(F)cccc2Cl)on1 (stereo not drawn)	i	5	1.7	1.4	1.9	6	11	15	0.69
CCC(COC)NC(=O)CCc1nnc(Cc2cccc(C(F)(F)F)c2)o1 (stereo not drawn)	i	5	0.4	4.4	2.3	/	9	9	0.66
O=C(C1=C(O)C(=O)N(CC2CCCO2)C1c1cccc(Cl)c1)c1ccco1 (stereo not drawn)	i	4	-0.1	-2.9	9.6	5	-9	0	0.64
Cc1cc(CNC(=O)[C@H]2C[C@@H]2[C@H](NP(=O)(c2ccccc2)c2ccccc2)c2ccccc2)nn1C	i	/	/	1.5	0.8	2	7	6	/
CN(Cc1cc(Cl)cc(Cl)c1)CC(C(=O)c1ccccc1)c1ccccc1 (stereo not drawn)	i	-2	5.3	2.6	/	/	0	2	/
CCCCn1c(N)c(N(CC(C)C)C(=O)Cn2c(=O)oc3ccccc32)c(=O)[nH]c1=O	i	4	3.5	0.4	-0.3	-12	-1	3	0.68
O=C1NC[C@H](CCCCN2C[C@H](Cc3ccccc3)N(CCc3ccccc3)C(=O)C2=O)N(CCc2ccc(O)cc2)C1=O	i	/	4.9	3.7	/	/	-2	-12	/
O=C(NCCOc1ccccc1F)C1CCC(=O)N(CCc2cccc(F)c2)C1 (stereo not drawn)	i	6	-0.5	-4.9	0.7	-1	-15	-15	0.67
COC(=O)c1sc2ccccc2c1NC(=O)c1coc2ccccc2c1=O	/	-1	-0.9	/	3.4	6	/	/	0.73
COC(=O)c1ccc2c(c1)SC1=C(CCCC1=O)N2	/	-11	-5.4	/	1.2	34	/	/	0.77
Cc1c(C(C)C)c(=O)n(-c2ccc(S(=O)(=O)NC3CCCCC3)cc2)n1C	i	-1	2.6	4.0	2.9	1	4	8	0.69
Cc1occc1C(=O)Nc1cnn(CCCC(=O)O)c1	i	11	5.3	1.0	5.5	-83	6	8	0.68

Retrieved by structure from the entries so far:
structure	FGF22 binding	B2AR ag	HNF4A DNA FP	rRNA inh HTS RFP	UCH37 inh	ALR inh	rRNA inh HTS OD600	rRNA inh HTS	E coli growth
Cc1cc(C(=O)NNC(=O)c2ccc(Cl)cc2)no1	i	3	-0.8	3.2	3.8	3	7	18	0.72
N#Cc1ccc(CSc2ccccn2)c(Cl)c1	i	-8	-3.2	/	-2.0	/	/	/	0.67
CCc1cc(CNC(=O)CC2C(=O)NCCN2Cc2c(F)cccc2Cl)on1 (stereo not drawn)	i	5	1.7	1.4	1.9	6	11	15	0.69

New compounds follow.
structure	FGF22 binding	B2AR ag	HNF4A DNA FP	rRNA inh HTS RFP	UCH37 inh	ALR inh	rRNA inh HTS OD600	rRNA inh HTS	E coli growth
CC(C)c1nc(SCC(=O)NC2CCCC2)c2c(=O)n(C)c(=O)n(C)c2n1	i	2	8.8	-4.4	-0.1	-14	7	0	0.69
CC(C)(C)C(=O)N1CCN(c2nc3ccccc3o2)CC1	i	3	-0.8	0.7	2.1	8	-1	-3	0.68
COc1ccccc1N1CCN(C(=O)c2sc3nc4n(c(=O)c3c2C)CCC4)CC1	i	11	-1.4	-0.9	1.2	14	-2	-2	0.68
CCc1ccc(C(C(=O)NCc2ccc(F)cc2)N(C(=O)c2csnn2)C2CC2)cc1 (stereo not drawn)	i	-8	0.4	0.0	0.1	-17	-7	3	0.65
O=C(COc1ccccc1)N[C@@H]1c2ccccc2CC[C@@H]1O	i	-6	-0.8	7.6	2.3	/	6	12	0.67
COc1ccc(NC(=O)CSc2nnc(Cc3ccccc3)o2)c(OC)c1	i	-1	-4.4	1.3*	1.7	-2	9.9*	-24*	0.7
COc1cc(S(=O)(=O)Nc2ccc(C(=O)NCC(=O)O)cc2)ccc1NC(C)=O	i	2	1.4	-1.2	1.5	-1	-2	11	0.65
O=C(O)/C=C/c1ccc(S(=O)(=O)Nc2ccc3[nH]c(=O)[nH]c3c2)cc1	i	-2	-4.8	-0.6	5.6	27	2	0	0.7
Cc1ccc(NC(=O)C2CCN(S(=O)(=O)c3cnc[nH]3)CC2)nc1	/	8	0.7	/	1.7	/	/	/	0.72
Cc1ccc(-c2noc(CN3CCC(C(N)=O)CC3)n2)cc1	/	0	-2.5	/	-0.7	/	/	/	0.7
CCOC(=O)c1oc2ccccc2c1NC(=O)COC	/	3	4.5	/	-0.3	-10	/	/	0.69
COc1ccc2cc(S(=O)(=O)N3CCOCC3)ccc2c1	/	-8	-0.6	/	4.0	-17	/	/	0.66
CC[C@]1(C(=O)OC)[C@H]2C(=O)N(C)C(=O)[C@H]2[C@H]2CN=C(SCc3ccc(Cl)cc3)N21	i	5	2.1	3.7	-0.8	/	2	3	0.68
O=C(Nc1cccc(O)c1)c1cc(-c2cccs2)on1	i	1	-1.3	-1.2	4.1	/	-20	-22	0.62
O=C(OC(C(=O)Nc1ccc(Cl)cc1C(F)(F)F)c1ccccc1)c1c(Cl)cccc1Cl (stereo not drawn)	i	-5	3.6	1.8	2.7	/	2	1	0.66
Cc1cccc(NC(=S)N2CCN(S(=O)(=O)c3ccc(F)cc3)CC2)c1	i	26	-1.0	1.1	-0.8	-9	5	0	0.68
COCCN(C(=O)CSc1nc2ccccc2o1)c1c(N)n(Cc2ccccc2)c(=O)[nH]c1=O	i	-7	1.4	-2.0	3.3	-4	3	3	0.69
CC1CN(S(=O)(=O)c2ccc(C(=O)Nc3ccccc3F)cc2)CC(C)O1 (stereo not drawn)	i	1	1.1	-1.2	1.4	3	11	2	0.63
COc1ccc(CNC(=O)Cn2cncn2)cc1OC	i	4	4.3	1.9	0.9	/	13	19	0.65
Cc1ccc(NC2CCCN(C(=O)c3cnc4ccccn4c3=O)C2)cc1C (stereo not drawn)	i	-2	4.4	-0.8	-48	/	10	6	0.71
COc1ccc(NC(=O)c2cc(-c3cc(F)ccc3OC)n[nH]2)c(OC)c1	i	/	-1.6	-4.5	/	/	-24	-4	/
COCCn1c(SCC(=O)NC2CCCCC2)nnc1-c1ccco1	i	9	-1.8	-6.2	0.3	7	-40	-29	0.67
COc1ccc(CN2CCc3c([nH]c4ccccc34)C2)c(OC)c1C	i	8	0.3	1.4	1.4	-2	-9	4	0.6
CC(=O)c1c(O)cc(=O)n(-c2ccccc2)c1-c1cccc2ccccc12	/	-20	5.1	/	3.3	-3	/	/	0.75
Cc1ccccc1NC(=S)N1CCOCC1	i	6	3.1	-0.7	-1.1	4	9	11	0.69

Screening results from PubChem.

An excerpt; count on the stated rates, not on these rows.
